VACV Venus inh: qHTS for Stage-Specific Inhibitors of Vaccinia Orthopoxvirus: Venus Reporter Primary qHTS; Vaccinia virus Venus reporter expression, fluorescence; 330,000 tested, 0.46% active; Potency, µM (doses to about 36.5 µM), without a hit: at the top dose activity change, negative = inhibition, usual class: inhibitors; active means well fitted inhibition curve with a large enough effect; inconclusive means small, poorly fitted or top-dose-only effect; inactive means no such curve, though single readings can be large or run the other way; tested in A549 cells; note: nearly all actives have a fitted effect of over 30% in size; inactives centre near -10
VACV mCherry inh: qHTS for Stage-Specific Inhibitors of Vaccinia Orthopoxvirus: mCherry Reporter Primary qHTS. Vaccinia virus mCherry reporter infection, fluorescence; about a quarter of the inactives have no number. Potency, µM (doses to about 36.5 µM), without a hit: at the top dose activity change, negative = inhibition, usual class: inhibitors. 310,000 tested, 0.63% active. AID 720579, 2013; active = well fitted inhibition curve with a large enough effect; inconclusive = small, poorly fitted or top-dose-only effect; inactive = no such curve, though single readings can be large or run the other way; tested in A549 cells; note: nearly all actives have a fitted effect of over 35% in size; inactives centre near -10
* = called active by the depositor; i = inactive; ? = inconclusive; nt = not tested or not shown; & = joins results of further samples; [ ] = dose if it differs, or a comment. % is set by controls: 0 for no effect and ±100 for the full control effect; potency is the fitted concentration of half-maximal effect.

structure | VACV Venus inh | VACV mCherry inh
Cc1ccc(NC(=O)CSC(C)C(=O)OCC(=O)N2CCN(C(=O)c3ccco3)CC2)cc1 (centres undefined) | 3% | i
O=C(Nc1nnc(-c2cccnc2)o1)c1ccccc1Cl | -5% | -8%
CC1(C)CC2CC(C)(CN2C(=O)c2ccccc2)C1 (centres undefined) | -4% | i
O=C(O)CCC(NC(=O)OCc1ccccc1)C(=O)O (centres undefined) | -10% | -24%[1.46 µM]
CC1C(c2ccccc2)OC(=O)N1C (centres undefined) | -4% | i
O=C(O)c1ccc2c(c1)CCC2 | -5% | i
CCCS(=O)(=O)N1CCCC(C(=O)NCCCN(C)Cc2ccccc2)C1 (centres undefined) | -15% | nt
Cc1ccn2cc(C(=O)N3CCCC(Nc4ccc(F)cc4)C3)nc2c1 (centres undefined) | -14% | i
COc1ccc(-c2nc3c(c(SCC(=O)N4CCCCC4)n2)Cc2cc(C)ccc2O3)cc1 | 2% | -3%
Fc1ccc(N2CCN(C(c3cccs3)c3nnnn3C3CCCC3)CC2)cc1 (centres undefined) | -24% | -28%
Cc1cc(OCC(=O)Nc2ccncc2)ccc1Br | ? | nt
c1coc(C2=NC(c3ccco3)C(c3ccco3)N2)c1 (centres undefined) | 2% | -8%
Cc1nc(SCC(=O)Nc2ccc(C)c(F)c2)c2oc3ccccc3c2n1 | 4% | nt
CCN1CCN(c2ncnc3c2cnn3-c2ccc(F)cc2)CC1 | -2% | -6%
O=C(Nc1cccc(S(=O)(=O)N2CCCC2)c1)c1cc(-c2ccccn2)nc2ccccc12 | 1% | i
O=C(O)c1oc2ccccc2c1CSCc1ccccc1 | -9% | -2%
Cc1ccc2c(CC(=O)N(Cc3ccc(N(C)C)cc3)Cc3ccco3)coc2c1C | -18% | -16%
Cc1noc(C)c1S(=O)(=O)N1CCC(C(=O)N2CCN(c3ccc(Cl)cc3)CC2)CC1 | -23% | -2%
COc1ccc(CCNC(=O)CSc2nc(C)cs2)cc1 | -14% | -15%
CCOc1cc(CNC(=O)c2ccc3c(c2)N(C)C(=O)C2CCCCN32)cc(OCC)c1OCC (centres undefined) | -16% | -23%
O=C(NC12CC3CC(CC(C3)C1)C2)N1CCN(c2ccccc2)CC1 | -13% | ?
CC1CCCN(C(=O)c2ccc3c(=O)n(C4CCCC4)c(=S)[nH]c3c2)C1 (centres undefined) | -11% | -1%
CNC(=O)c1c(NC(=O)c2ccc3ncsc3c2)sc(C)c1C | -9% | i
CC(C)CC(=O)N1CCN(c2ccc(NC(=O)c3ccco3)cc2)CC1 | -13% | -22%
O=C(Nc1ccc(F)cc1)N1CCN(c2nc3ccccc3s2)CC1 | ? | nt
COc1cccc(CN2CCNC(=O)C2CC(=O)NCc2cn3cccc(C)c3n2)c1OC (centres undefined) | -10% | i
O=C(NCc1cccnc1)/C(=N\O)c1ccccc1 | -6% | -9%
COC(=O)c1ccc(NC(=O)COc2ccc3c(c2)OCO3)cc1 | -18% | ?
C=CCn1c(SCC(=O)N(C)C2CCS(=O)(=O)C2)nnc1-c1ccccc1 (centres undefined) | -1% | -7%
O=C(NCC(=O)N(CCN1CCOCC1)C(C(=O)NC1CCCC1)c1ccccc1)c1cccs1 (centres undefined) | -8% | i
CCOc1ccc(Nc2ncnc3ccc([N+](=O)[O-])cc23)cc1 | -25% | -21%
CCN(CC(=O)Nc1ccc(C#N)c(Cl)c1)CC(=O)NC(C)(C)C | -3% | 0%
CCN(c1ccccc1)S(=O)(=O)c1ccc(Oc2ccccc2C(C)=O)nc1 | -9% | -7%
CC1=C(OC(=O)c2ccccc2)C(C)(C)C(c2ccc(Br)cc2)OC1=O (centres undefined) | -7% | nt
O=C(CSc1nc(-c2ccccc2)cn1-c1ccccc1)Nc1ccccc1 | -17% | -9%
Cc1cc(C(=O)N(C)Cc2c(F)cccc2Cl)c2ccccc2n1 | -13% | -17%
O=C(Nc1ccc(NS(=O)(=O)c2ccc([N+](=O)[O-])cc2)cc1)c1ccco1 | -12% | -16%
O=C(c1c[nH]c(C(=O)C(Cl)(Cl)Cl)c1)c1ccccc1Cl | -23% | nt
COc1ccccc1C1=NOC(COC(=O)c2ccc([N+](=O)[O-])cc2)C1 (centres undefined) | -11% | -3%
COc1ccccc1CNc1ncncc1-c1cccc(C#N)c1 | -18% | -13%
O=C(COc1ccccc1Cl)Nc1ccccc1C(=O)N1CCCCC1 | -6% | i
COc1ccc(OCc2ccc(-c3nc4ccccc4c(=O)n3N)o2)cc1 | 3% | nt
COc1ccc(-c2cc(C(F)(F)F)nc(SCCC(=O)N3CCOCC3)n2)cc1 | -28% | i[1.46 µM]
O=C(Cn1nc(Cc2cccnc2)c2ccccc2c1=O)NCc1ccc(F)cc1 | 0% | -12%
COC(=O)N(C)C[C@@H]1OCc2cnnn2CCCC(=O)N([C@@H](C)CO)C[C@H]1C | -3% | -2%
COc1ccc(C(=O)N(NC(=O)Oc2ccccc2)C(C)(C)C)cc1 | -7% | -6%
O=C(Nc1ccc(F)cc1)Nc1ccccc1C(=O)NCCN1CCNC1=O | 0% | 4%
O=S1(=O)N[C@H](c2ccccc2)C[C@H](c2ccc(C(F)(F)F)cc2)O1 | -12% | i
CCOc1cc(/C=C2\CN(CC)C/C(=C\c3ccc(O)c(OCC)c3)C2=O)ccc1O | -24% | ?
CC/C=C/C(=O)N1CC2(CC(c3cccc(NC(=O)c4ccccc4)c3)=NO2)C[C@@H]1C(N)=O (some centres undefined) | -6% | 12%

Further entries:
structure | VACV Venus inh | VACV mCherry inh
CC(C)NC(=O)CSCc1c(Cl)cccc1Cl | -25% | -18%
C=CCN1N=C(/C=C/c2ccc(OC)cc2)CCC1=O | -11% | -24%
O=C(COC(=O)c1cc(=O)[nH]c2ccccc12)NCc1cccc(Cl)c1 | -7% | -10%
COC(=O)c1cc(C)nc2c1c(=O)nc(SCc1cccc(C(F)(F)F)c1)n2C1CC1 | -11% | -14%
COc1nc(SC)nc(Cl)c1Cc1ccc(OC(C)C)cc1 | -6% | -12%
Cc1cccc2cc(CN(CCCO)C(=O)Nc3cccc(Cl)c3)c(=O)[nH]c12 | -17% | nt
O=C(CN1C(=O)c2ccccc2S1(=O)=O)N1CCc2ccccc21 | -8% | 1%
O=C(O)C1=C[C@H](c2cccs2)C[C@H](OCCCCO)O1 | -1% | -2%
Cc1c(Cl)ccc2sc(N3CCN(C(=O)CCS(=O)(=O)c4ccc(F)cc4)CC3)nc12 | ? | -23%
O=C(N/N=C/c1ccccc1O)/C(=C/c1ccccc1)CCO | ? | 7.1µM*
CCOC(=O)[C@H]1[C@H]2COc3ccc(C)cc3[C@@H]2N2C(=O)c3cc(C)ccc3NC(=O)[C@@]12C | -21% | 0%
O=C(NNc1nc2ccccc2s1)c1ccccc1F | -12% | -28%
Cc1ccccc1NC(=O)c1ccc2[nH]c(C)c(C)c2c1 | -11%[7.34 µM] | -4%[7.34 µM]
COc1ccc(S(=O)(=O)N2CCCCCC2)cc1C(=O)N(C)CC(=O)Nc1ccc(F)cc1 | -15% | -9%
Cc1ccc(NC(=O)CSC2=NN3CCCC(=O)N=C3S2)cc1Cl | 1% | -12%
CC=C(CC)C1(CC)C(=O)NC(=S)NC1=O | -6% | -14%
CN(CCOc1ccccc1)CC(=O)Nc1ccc(Br)cc1F | -13% | -21%
O=C(CN1c2cccc3cccc(c23)S1(=O)=O)Nc1ccccc1F | -13% | i
CCCN(C(=O)C1CCN(S(=O)(=O)c2ccc(OC)c(OC)c2)CC1)C1CCS(=O)(=O)C1 (centres undefined) | 0% | -15%
CCOc1ccc(OCC(=O)NCc2n[nH]c(=O)c3ccccc23)cc1 | -7% | -11%
CN=c1sc(C(=O)Nc2ccccc2)c(C)n1C | -4% | -1%
C[C@@H]1CN([C@@H](C)CO)C(=O)CCCn2nncc2CO[C@H]1CN(C)C(=O)Nc1ccc(F)cc1 | -7% | -1%
CNC[C@H]1Oc2cc(Br)ccc2S(=O)(=O)N([C@H](C)CO)C[C@H]1C | -6% | 0%
CC(=O)Nc1ccc(S(=O)(=O)N2CCN(CC(O)COc3ccc4ccccc4c3)CC2)cc1 (centres undefined) | ? | -6%
Cc1ccc(/C=N/NC(=O)c2ccncc2)cc1 | -13% | -6%
COc1cccc(-c2nnn(CC(=O)N3CCCCC3)n2)c1 | -11% | i
CCCN(CCC)C(=O)Cn1c(=O)n(CCCCCC(=O)NCc2ccc3c(c2)OCO3)c(=O)c2sccc21 | -5% | -5%
Cc1ccc2nc(/N=C(\N)NC(=O)N3c4ccccc4Sc4ccccc43)nc(C)c2c1 | -8% | i
COc1ccc(C(=O)NNc2ncnc3c2cnn3-c2cccc(Cl)c2)cc1OC | ? | ?
CC(C)(C)OC(=O)N[C@@H](/C=C/c1ccccc1)C(=O)OC(C)(C)C | -17% | i

Complete entries as entered above.
Cc1ccc(/C=N/NC(=O)c2ccncc2)cc1 as listed: VACV Venus inh: -13%; VACV mCherry inh: -6%
COc1cccc(-c2nnn(CC(=O)N3CCCCC3)n2)c1 as listed: VACV Venus inh: -11%; VACV mCherry inh: i
Cc1ccc2nc(/N=C(\N)NC(=O)N3c4ccccc4Sc4ccccc43)nc(C)c2c1 as listed: VACV Venus inh: -8%; VACV mCherry inh: i

Next part:
structure | VACV Venus inh | VACV mCherry inh
CCCCNC(=O)C[C@@H]1C[C@@]2(C(=O)OC)CC(C)(C)CC=C2N(Cc2ccccc2)C1=O | -8% | -25%
CCOc1ccc(N2CC(NC(=O)c3ccc4ccccc4c3)CC2=O)cc1 (centres undefined) | -11% | -21%
C/C(=N/NC(=O)CNC(=O)c1cccs1)c1ccc(Cl)cc1 | -27% | -4%
Nc1ccccc1C(=O)N1CCCC1 | -3% | -2%
O=C(CN(Cc1ccc(Br)cc1)S(=O)(=O)c1ccccc1)NCC1CCCO1 (centres undefined) | -23% | -19%
COc1ccc(CC(=O)Nc2nc3n(n2)C(c2ccccc2)CC(=O)N3)cc1OC (centres undefined) | -4% | nt
Cc1ccc(C2c3c(-c4ccccc4O)n[nH]c3C(=O)N2CCCO)cc1 (centres undefined) | -8% | -12%
CCCn1c(=O)c2c(nc3n2CCN3Cc2ccco2)n(C)c1=O | -17% | 0%
CCCCNC(=O)Cn1c(SCc2ccccc2C)nc2ccncc21 | -9% | 22%
CCN(CC)C(=O)CCSc1nnc(-c2ccco2)o1 | -12% | i
CCCc1cc(=O)oc2c(C)c(OC(C)C(=O)NCCN3CCOCC3)ccc12 (centres undefined) | -12% | -21%
CC1=C(c2ccc(Cl)cc2)S(=O)(=O)NC1=NCc1ccc(C)cc1 | -9% | -10%
CC(=O)N(/N=C1\Sc2ccccc2C1=O)c1cccc(C)c1 | 39%[activator] | -6%
CC(C)c1ccc(NC(=O)C2CCCN(S(=O)(=O)c3cccc4nonc34)C2)cc1 (centres undefined) | -6% | -5%
Cc1cc(OC(=O)c2ccccc2Br)cc(=O)n1C | -13% | nt
Cc1nnc(SCc2cc(=O)[nH]c(N3CCN(C)CC3)n2)s1 | 2% | i
O=C1NC(c2ccccc2)=N/C1=C/c1ccco1 | -1% | -17%
COc1ccc(CC(=O)OCc2csc(CC(=O)Nc3ccc(C)cc3)n2)cc1 | 6% | -29%
CC(=O)c1ccc(NC(=O)CC(c2cccs2)N2Cc3ccccc3C2=O)cc1 (centres undefined) | -6% | -8%
O=C(O)C1C2C=CC(O2)C1C(=O)NCCc1cccc(Cl)c1 (centres undefined) | -4% | -17%
CC(NCC(=O)NC(=O)NC1CCCC1)c1ccc(Cl)cc1Cl (centres undefined) | -16% | -25%
O=C(C1CC(=O)N(C2CCCC2)C1)N1CCN(c2ccccc2F)CC1 (centres undefined) | -18% | i
CC(=O)Nc1ccc(NC(=O)CCNS(=O)(=O)c2cccc3nsnc23)cc1 | -10%&-2% | -10%
CCc1nc(N)nc(N)c1-c1ccc(N(C)Cc2ccccc2)c([N+](=O)[O-])c1 | 1µM* | ?
CCc1cc(/C(Cc2ccccn2)=N\Nc2ccccc2)c(O)cc1O | -13% | -27%
O=C(CCc1nnc(C2CCCCC2)o1)NCCCOc1cccnc1 | -15% | i
O=C(c1ccccc1-c1nc(-c2ccc(F)cc2)no1)N1CCCC1 | -7% | nt
O=C(Nc1ccccc1)c1c(O)[nH]c(=O)[nH]c1=O | -1% | i
Cc1cc(C)c(Nc2ncnc(N)n2)c(C)c1 | -20% | -12%
COCCCNC(=O)CCCn1c(=O)c2ccccc2n(Cc2cccc([N+](=O)[O-])c2)c1=O | -2% | i
COc1ccc(-c2ccnc(-c3ccc(O)cc3)n2)cc1 | ? | ?
COc1cc(NC(=O)COC(=O)CCCC2=NS(=O)(=O)c3ccccc3N2)cc(OC)c1 | -16% | i
COc1ccc(-c2noc(CSc3nc(N)c(-c4ccccc4)c(=O)[nH]3)n2)cc1 | -12% | -3%
CN(C)c1ccc(-c2nnc(-c3cccnc3)o2)cc1 | -28% | ?
COc1cccc(NC(=O)Cc2cn(C)c3ccccc23)c1 | ? | nt

Random draw from the library; 0.88% or so of the library scored in one or more.
